Screening results (PubChem BioAssay)
HIV Env fusion – inhibitors of HIV Env-mediated cell fusion | HeLa-JRFL Env/CEM21 cell fusion, luciferase | inhibition, % at 12.3 µM | hit rate 1.1% among 360,000;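 active means mean replicate inhibition score of at least 50 and every replicate individually at or above 50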;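 further: 0% = plate neutral controls and 100% = maraviroc near 300 nM; one replicate is shown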
UUG fidelity – yeast start codon fidelity modulation | activity score, % at 18.7 µM | hit rate 0.13% among 350,000 | S. cerevisiae UUG-firefly luciferase reporter, luminescence/redox ratio;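 active means replicate mean at a twofold rise or more, about +100% in these data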;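 further: firefly luciferase made from a UUG start codon reports start codon fidelity; reporter light over untreated wells divided by growth signal over untreated wells; some hits fall short of that in this replicate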
Starred values were filed as active, the others as inactive; [ ] = another dose, or the depositor's remark.

SMILES	HIV Env fusion	UUG fidelity
COc1ccc(NC(=O)N[C@@H]2CC[C@@H](CCNC(=O)Cc3ccncc3)O[C@H]2CO)cc1	-13[16.7 µM]	0
C[C@@H]1CN([C@@H](C)CO)S(=O)(=O)c2ccc(C#C[C@@H](C)O)cc2O[C@@H]1CN(C)C	-3[16.7 µM]	-18
COCC#Cc1cnc2c(c1)C(=O)N([C@@H](C)CO)C[C@H](C)[C@H](CN(C)C(=O)c1cccc(F)c1)O2	4[16.7 µM]	-3
COc1ccc(-c2cn(CC[C@@H]3CC[C@H](NC(=O)Cc4ccccn4)[C@@H](CO)O3)nn2)cc1	-5[16.7 µM]	4
CCCNC(=O)C[C@@H]1CC[C@H]2[C@@H](COc3ccc(NC(=O)c4cccc(C(F)(F)F)c4)cc3C(=O)N2C)O1	25[16.7 µM]	2
CNC[C@H]1Oc2c(NS(C)(=O)=O)cccc2C(=O)N([C@H](C)CO)C[C@H]1C	-14[16.7 µM]	-8
CCCc1cn(CC[C@H]2CC[C@@H](NS(=O)(=O)c3ccccc3Cl)[C@@H](CO)O2)nn1	0[16.7 µM]	-2
N#C[C@@H]1[C@H](c2ccc(-c3cncnc3)cc2)[C@H](CO)N1C(=O)CN1CCOCC1	-19[16.7 µM]	-12
C[C@H]1CN([C@@H](C)CO)S(=O)(=O)c2ccc(C#Cc3cccnc3)cc2O[C@H]1CN(C)CC1CCOCC1	14[16.7 µM]	15
C[C@@H]1CN([C@H](C)CO)C(=O)c2cc(-c3ccc(C(=O)N(C)C)cc3)cnc2O[C@H]1CN(C)C(=O)c1cccnc1	-57[16.7 µM]	-15
COc1ccccc1NC(=O)N[C@H]1C=C[C@@H](CC(=O)N2CCC(Cc3ccccc3)CC2)O[C@H]1CO	49[16.7 µM]	18
COc1ccc(S(=O)(=O)N(C)C[C@@H]2Oc3ccc(NS(=O)(=O)c4c(C)noc4C)cc3CC(=O)N([C@H](C)CO)C[C@@H]2C)cc1	32[16.7 µM]	18
CN1CCN(C(=O)C[C@@H]2C=C[C@@H](NC(=O)c3ccc4c(c3)OCO4)[C@@H](CO)O2)CC1	15[16.7 µM]	-16
C[C@H](CO)N1C[C@H](C)[C@@H](CN(C)CC2CCOCC2)Oc2cc(C#Cc3cccnc3)ccc2S1(=O)=O	5[16.7 µM]	-11
COCC(=O)Nc1ccc2c(c1)OC[C@H](C)N(CCC(F)(F)F)C[C@@H](C)[C@@H](OC)CN(C)C2=O	-4[16.7 µM]	-2
C/C=C/c1ccc([C@@H]2[C@@H](C#N)N(c3nc(-c4ccccc4)cs3)[C@H]2CO)cc1	-30[16.7 µM]	-10
O=C(Nc1ccc(F)cc1)N[C@H]1CC[C@H](CCNS(=O)(=O)c2cccc(Cl)c2)O[C@H]1CO	18[16.7 µM]	-25
COc1ccc(NC(=O)Nc2cccc3c2O[C@H](CN(C)S(=O)(=O)c2ccc(F)cc2)[C@H](C)CN([C@H](C)CO)C3=O)cc1	2[16.7 µM]	18
CN1C(=O)c2cc(NC(=O)c3cccc(Cl)c3)ccc2OC[C@@H]2O[C@H](CC(=O)NC3CCCCC3)CC[C@@H]21	57*[16.7 µM]	5
C[C@@H]1CN([C@H](C)CO)C(=O)Cc2cc(NC(=O)CCC(F)(F)F)ccc2O[C@H]1CN(C)C(=O)Nc1cccc2ccccc12	-4[16.7 µM]	-8
C[C@@H]1CN([C@@H](C)CO)C(=O)c2cc(NS(=O)(=O)c3cn(C)cn3)ccc2O[C@@H](C)CCCCO[C@@H]1CN(C)S(=O)(=O)c1ccccc1	8[16.7 µM]	-10
Cc1noc(C)c1NC(=O)Nc1ccc2c(c1)C(=O)N([C@H](C)CO)C[C@H](C)[C@@H](CN(C)C(=O)Nc1ccc3c(c1)OCO3)OCCCC[C@H](C)O2	10[16.7 µM]	6
Cc1noc(C)c1S(=O)(=O)Nc1cccc2c1O[C@@H](CN(C)Cc1ccc(-c3ccccc3)cc1)[C@@H](C)CN([C@H](C)CO)C2=O	-16[16.7 µM]	8
C[C@H]1CCCCO[C@@H](CN(C)C(=O)Cc2ccccc2)[C@@H](C)CN([C@@H](C)CO)C(=O)c2cc(NS(=O)(=O)c3cccs3)ccc2O1	-4[16.7 µM]	17
C[C@@H]1CN([C@H](C)CO)C(=O)c2cc(NC(=O)Nc3ccc(C(F)(F)F)cc3)ccc2O[C@@H](C)CCCCO[C@@H]1CN(C)Cc1ccncc1	14[16.7 µM]	11
C[C@@H]1CCCCO[C@H](CN(C)S(=O)(=O)c2ccc(F)cc2)[C@H](C)CN([C@H](C)CO)C(=O)c2cc(N(C)C)ccc2O1	12[16.7 µM]	19
Cc1ccc(S(=O)(=O)NCC[C@H]2CC[C@H](NC(=O)C3CCOCC3)[C@H](CO)O2)cc1	21[16.7 µM]	7
C[C@@H]1CN([C@H](C)CO)C(=O)c2cc(C#CCc3ccccc3)cnc2O[C@H]1CN(C)C(=O)C1CCCCC1	31[16.7 µM]	8
C[C@@H]1CN([C@H](C)CO)C(=O)c2cc(NS(C)(=O)=O)ccc2O[C@@H](C)CCCCO[C@@H]1CN(C)Cc1ccc(C(F)(F)F)cc1	17[16.7 µM]	14
COc1ccc(S(=O)(=O)N(C)C[C@H]2OCCCC[C@H](C)Oc3ccc(NC(=O)C4CCCCC4)cc3C(=O)N([C@H](C)CO)C[C@@H]2C)cc1	-26[16.7 µM]	10
CC(C)C(=O)Nc1ccc2c(c1)C(=O)N(C)[C@@H]1CC[C@H](CC(=O)NCCCN(C)C)O[C@@H]1CO2	18[16.7 µM]	-1
Cc1ccc(S(=O)(=O)N[C@H]2C=C[C@H](CC(=O)NCc3ccccc3F)O[C@@H]2CO)cc1	-26[16.7 µM]	2
C[C@@H]1CN([C@@H](C)CO)C(=O)Cc2cc(NS(=O)(=O)c3ccc(F)cc3)ccc2O[C@@H]1CN(C)S(=O)(=O)c1cn(C)cn1	-13[16.7 µM]	1
C[C@H]1CN([C@@H](C)CO)C(=O)c2cccc(NC(=O)c3ccncc3)c2O[C@H]1CN(C)S(=O)(=O)c1ccccc1	-2[16.7 µM]	-10
C[C@H](CO)N1C[C@H](C)[C@@H](CN(C)S(=O)(=O)c2ccc(Cl)cc2)Oc2c(NS(=O)(=O)c3ccc(Cl)cc3)cccc2C1=O	-151[16.7 µM]	4
CC(C)NC(=O)Nc1ccc2c(c1)CC(=O)N([C@@H](C)CO)C[C@@H](C)[C@@H](CN(C)CC1CCCCC1)O2	-15[16.7 µM]	9
Cc1noc(C)c1S(=O)(=O)Nc1ccc2c(c1)C(=O)N([C@H](C)CO)C[C@@H](C)[C@@H](CN(C)Cc1ccccc1)OCCCC[C@@H](C)O2	-29[16.7 µM]	-4
O=S(=O)(c1cccc(F)c1)N1CCN(Cc2ccc(OCCO)cc2)CC1	1[16.7 µM]	1
C[C@@H]1CCCCO[C@H](CN(C)Cc2ccc(C(=O)O)cc2)[C@H](C)CN([C@@H](C)CO)C(=O)c2cc(N(C)C)ccc2O1	-1[16.7 µM]	3
C[C@@H]1CN([C@@H](C)CO)C(=O)c2cc(NC(=O)Nc3cccc4ccccc34)ccc2O[C@@H](C)CCCCO[C@@H]1CN(C)Cc1ccc(C(=O)O)cc1	-6[16.7 µM]	45
COc1ccc(S(=O)(=O)Nc2ccc3c(c2)C(=O)N([C@@H](C)CO)C[C@H](C)[C@@H](CN(C)C(=O)Nc2ccccc2)OCCCC[C@@H](C)O3)cc1	-101[16.7 µM]	-3
CC(C)NC(=O)N(C)C[C@H]1Oc2ncc(C#CC3CCCC3)cc2C(=O)N([C@@H](C)CO)C[C@H]1C	-7[16.7 µM]	12
CC(C)NC(=O)N[C@@H]1CC[C@H](CCNS(=O)(=O)c2ccc(Cl)cc2)O[C@H]1CO	10[16.7 µM]	-5
C[C@@H]1CN([C@@H](C)CO)C(=O)c2cc(NC(=O)Nc3ccc4c(c3)OCO4)ccc2O[C@H]1CN(C)C(=O)Nc1ccc(F)cc1	13[16.7 µM]	-2
CNC[C@@H]1Oc2ncc(-c3ccc(OC)cc3)cc2C(=O)N([C@@H](C)CO)C[C@H]1C	-3[16.7 µM]	-3
C[C@H]1CN([C@@H](C)CO)C(=O)Cc2cc(NC(=O)C3CCCCC3)ccc2O[C@@H]1CN(C)C	11[16.7 µM]	10
C[C@H]1CN([C@@H](C)CO)C(=O)c2cc(NS(=O)(=O)c3ccc(F)cc3)ccc2O[C@H]1CN(C)Cc1ccc(C(=O)O)cc1	-12[16.7 µM]	-7
CO[C@@H]1CN(C)C(=O)c2cc(NC(C)=O)ccc2OC[C@@H](C)N(Cc2nccs2)C[C@@H]1C	9[16.7 µM]	1
COCC#Cc1ccc2c(c1)O[C@@H](CN(C)Cc1ccccc1)[C@@H](C)CN([C@H](C)CO)S2(=O)=O	-6[16.7 µM]	10
C[C@@H]1CN([C@H](C)CO)S(=O)(=O)c2ccc(-c3ccncc3)cc2O[C@@H]1CN(C)C(=O)CC1CC1	-10[16.7 µM]	-9
C[C@@H]1CCCCO[C@@H](CN(C)Cc2ccc(C(=O)O)cc2)[C@@H](C)CN([C@@H](C)CO)C(=O)c2cc(NC(=O)Nc3ccccc3)ccc2O1	10[16.7 µM]	13
C[C@@H]1CN([C@H](C)CO)C(=O)c2cc(NS(=O)(=O)c3cccs3)ccc2O[C@@H](C)CCCCO[C@@H]1CN(C)C	28[16.7 µM]	2
O=C(C[C@H]1C[C@H]2c3cc(NC(=O)NC4CCCCC4)ccc3O[C@H]2[C@H](CO)O1)NCC1CC1	13[16.7 µM]	7
C[C@@H]1CCCCO[C@@H](CN(C)S(=O)(=O)c2ccccc2)[C@H](C)CN([C@H](C)CO)C(=O)c2cc(NC(=O)c3ccccc3)ccc2O1	-36[16.7 µM]	-14
O=C1O[C@H](c2ccccc2)[C@H](c2ccccc2)N2[C@H]1[C@@H](C(=O)Nc1nc3ccccc3s1)[C@]1(C(=O)Nc3ccc(C#CCCO)cc31)[C@H]2c1ccc(OCCO)cc1	-10[16.7 µM]	-20
C[C@@H]1CN([C@H](C)CO)C(=O)Cc2cc(NS(=O)(=O)c3cccs3)ccc2O[C@@H]1CN(C)Cc1ccc(Oc2ccccc2)cc1	-68[16.7 µM]	12
O=C(Cc1ccncc1)NCC[C@@H]1CC[C@H](NC(=O)C2CCCC2)[C@@H](CO)O1	-6[16.7 µM]	-3
COc1cccc(NC(=O)N[C@H]2CC[C@H](CC(=O)N3CCN(C)CC3)O[C@H]2CO)c1	4[16.7 µM]	6
COC(=O)C(CC#Cc1ccc2c(c1)[C@]1(C(=O)N2)[C@H](c2ccc(OCCO)cc2)N2[C@H](c3ccccc3)[C@H](c3ccccc3)OC(=O)[C@H]2[C@@H]1C(=O)N1CCN(c2ncccn2)CC1)C(=O)OC	-13[16.7 µM]	27
Cc1ccc(S(=O)(=O)Nc2ccc3c(c2)C(=O)N([C@@H](C)CO)C[C@@H](C)[C@H](CN(C)C(=O)Nc2ccccc2)OCCCC[C@@H](C)O3)cc1	-86[16.7 µM]	-1

Single records (already shown).
COc1cccc(NC(=O)N[C@H]2CC[C@H](CC(=O)N3CCN(C)CC3)O[C@H]2CO)c1 across the screens: HIV Env fusion: 4[16.7 µM]; UUG fidelity: 6
C[C@@H]1CN([C@H](C)CO)C(=O)c2cc(NS(=O)(=O)c3cccs3)ccc2O[C@@H](C)CCCCO[C@@H]1CN(C)C across the screens: HIV Env fusion: 28[16.7 µM]; UUG fidelity: 2

(next part)
SMILES	HIV Env fusion	UUG fidelity
Cc1ccc(S(=O)(=O)N(C)C[C@@H]2OCCCC[C@H](C)Oc3ccc(NS(=O)(=O)c4c(C)noc4C)cc3C(=O)N([C@@H](C)CO)C[C@@H]2C)cc1	19[16.7 µM]	-19
C[C@H](CO)N1C[C@H](C)[C@H](CN(C)CC2CC2)Oc2c(NS(=O)(=O)c3ccc(Cl)cc3)cccc2C1=O	-43[16.7 µM]	1
COc1ccc(S(=O)(=O)N(C)C[C@H]2OCCCC[C@H](C)Oc3ccc(NS(=O)(=O)c4ccc(F)cc4)cc3C(=O)N([C@@H](C)CO)C[C@H]2C)cc1	9[16.7 µM]	-3
Cc1ccc(S(=O)(=O)Nc2cccc3c2O[C@@H](CN(C)Cc2ccc(Cl)c(Cl)c2)[C@H](C)CN([C@H](C)CO)C3=O)cc1	-10[16.7 µM]	15
O=Cc1ccc(NC(=O)CCCCCCC(=O)NOCc2ccccc2)cc1	-11[16.7 µM]	-20
CO[C@@H]1CN(C)C(=O)c2cc(NC(=O)C3CC3)ccc2OC[C@H](C)N(C(=O)Cc2ccccn2)C[C@H]1C	41[16.7 µM]	8
C[C@H]1CN([C@@H](C)CO)S(=O)(=O)c2ccc(C#Cc3ccncc3)cc2O[C@H]1CN(C)C(=O)C1CCOCC1	0[16.7 µM]	2
COc1cccc(-c2ccc3c(c2)O[C@H](CN(C)Cc2cccnc2)[C@@H](C)CN([C@H](C)CO)S3(=O)=O)c1	10[16.7 µM]	-9

Arranged by formula weight (rising): some entries from above
SMILES	HIV Env fusion	UUG fidelity
C[C@H]1CN([C@@H](C)CO)S(=O)(=O)c2ccc(C#Cc3cccnc3)cc2O[C@H]1CN(C)CC1CCOCC1	14[16.7 µM]	15
C[C@@H]1CN([C@H](C)CO)C(=O)Cc2cc(NC(=O)CCC(F)(F)F)ccc2O[C@H]1CN(C)C(=O)Nc1cccc2ccccc12	-4[16.7 µM]	-8
COC(=O)C(CC#Cc1ccc2c(c1)[C@]1(C(=O)N2)[C@H](c2ccc(OCCO)cc2)N2[C@H](c3ccccc3)[C@H](c3ccccc3)OC(=O)[C@H]2[C@@H]1C(=O)N1CCN(c2ncccn2)CC1)C(=O)OC	-13[16.7 µM]	27

2 records drawn at random from those above, as already listed:
SMILES	HIV Env fusion	UUG fidelity
O=Cc1ccc(NC(=O)CCCCCCC(=O)NOCc2ccccc2)cc1	-11[16.7 µM]	-20
Cc1ccc(S(=O)(=O)Nc2cccc3c2O[C@@H](CN(C)Cc2ccc(Cl)c(Cl)c2)[C@H](C)CN([C@H](C)CO)C3=O)cc1	-10[16.7 µM]	15

Some of the compounds tested. The share of hits here may be higher or lower than overall.
